Screening results deposited in PubChem BioAssay by National Center for Advancing Translational Sciences (NCATS).
NS1 inh = influenza NS1 inhibition; S. cerevisiae slowed by influenza A NS1, growth recovery by OD600; 0.4% of 270,000 active; Potency, µM (highest dose often 46.1 µM), for inactives: top-dose activity, positive = more growth; active means well fitted rising curve with a large enough effect; inconclusive means small, poorly fitted or top-dose-only effect; inactive means no such curve, though single readings can be large or run the other way; also: nearly all actives have a fitted effect of over 50% in size
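S. cerevisiae expressing influenza A NS1, grown in glucose, washed, then diluted 1:100 into pH 6.0 -URA galactose medium with 23 nl compound. Growth recovery read as OD600; NS1-free strain serves as control.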
Cruzain inh Det = inhibitors of Trypanosoma cruzi cruzain with detergent; purified cruzain, Z-FR-AMC fluorescence, 0.01% Triton; Potency, µM, without a hit: max response, negative = inhibition, hits mostly inhibitors; 0.43% of 200,000 active;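 also: plate controls were neutral wells for no effect and buffer without enzyme for full effect; nearly all actives have a fitted effect of over 40% in size; top concentration of the series not given in the record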
Target sequence (P25779 123-467 limits assumed): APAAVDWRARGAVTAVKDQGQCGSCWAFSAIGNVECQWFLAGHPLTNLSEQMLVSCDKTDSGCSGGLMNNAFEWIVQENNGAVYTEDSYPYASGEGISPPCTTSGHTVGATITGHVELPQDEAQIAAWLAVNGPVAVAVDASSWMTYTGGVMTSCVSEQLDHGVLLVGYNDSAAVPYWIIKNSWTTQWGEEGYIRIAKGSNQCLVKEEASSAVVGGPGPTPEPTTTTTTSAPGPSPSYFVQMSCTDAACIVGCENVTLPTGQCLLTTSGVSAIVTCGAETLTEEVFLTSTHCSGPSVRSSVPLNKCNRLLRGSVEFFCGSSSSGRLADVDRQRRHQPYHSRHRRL
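Detergent-containing run (0.01% Triton X-100) in acetate buffer pH 5.5 with 5 mM DTT: enzyme at 1.5 nM final, 15 min compound preincubation at room temperature, then 2 uM Z-FR-AMC substrate. Activity taken as 60 s fluorescence increase at 360/450 nm.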
StopGo reporter = FMDV 2A StopGo reporter, luciferase signal; Potency, µM (highest dose often 57.9 µM), for inactives: top-dose signal change, negative = less light; 1.2% of 410,000 active; AID 1159524; human cells with a luciferase reporter of 2A StopGo recoding; control for the full effect not named in the record; active = well fitted falling curve with a large enough effect; inconclusive = small, poorly fitted or top-dose-only effect; inactive = no such curve, though single readings can be large or run the other way; tested in HEK293T cells; also: % is scaled to controls: 0 for no effect and ±100 for the full control effect; nearly all actives have a fitted effect of over 45% in size; luciferase light after 4 h
Cruzain inh noDet = blocks cruzain activity in detergent-free assay; purified cruzain, Z-FR-AMC fluorescence, no detergent; AID 1476; Potency, µM, for inactives: max response, negative = inhibition, most hits filed as inhibitors; 2.3% of 200,000 active;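 also: plate controls were enzyme without inhibitor for no effect and buffer without enzyme for full effect; nearly all actives have a fitted effect of over 40% in size; top concentration of the series not given in the record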
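Detergent-free condition (0.00005% Triton X-100) in acetate buffer pH 5.5 with DTT. 1.5 nM enzyme and compound were pre-mixed 15 min, then 2 uM Z-FR-AMC substrate added; reaction progress from fluorescence change between first and third reads (60 s).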
SARS PLpro yeast = inhibitors of SARS-CoV papain-like protease in yeast | S. cerevisiae expressing SARS-CoV PLpro, growth rescue; control for the full effect not named in the record | Potency, µM (series often up to 32.9 µM), for the others: at the highest dose activity, positive = growth rescue | 0.19% of 330,000 active | AID 485353; active means well fitted rising curve with a large enough effect; inconclusive means small, poorly fitted or top-dose-only effect; inactive means no such curve, though single readings can be large or run the other way; also: 0% is about no effect; nearly all actives have a fitted effect of over 55% in size; growth read by luminescence after 48 h
* = called active by the depositor; ? = inconclusive; . = no result given; & = joins results of further samples; [ ] = another dose, or the depositor's remark. Unless noted, calls follow the shape of the dose curve; as a rule, active = well fitted curve in the direction sought with a large enough effect; inconclusive = small, poorly fitted or top-dose-only effect, or another doubt; inactive = no such curve, though single readings can be large; an effect the other way counts as inactive or inconclusive. Potency is read from the fitted curve at half-maximal effect. Some of the compounds tested; rates above refer to the full screens.

Second line of a record: NS1 inh	Cruzain inh Det	StopGo reporter	Cruzain inh noDet	SARS PLpro yeast
Cn1c(=O)c(-c2ccc(Cl)cc2)nc2cnc(Oc3cccc(Cl)c3)nc21
→ .	7.0%	-3%	-2%	.
O=c1c(-c2cc(F)cc(F)c2)nc2cnc(N3CCOCC3)nc2n1C1CC1
→ .	0.2%	-9%	-7%	.
Cc1noc(C)c1-c1nccc(-n2ccnc2)n1
→ .	2.0%	-2%	-1%	.
CCCCC(=O)NCCc1c(Cc2ccccc2)[nH]c2ccccc12
→ .	-7.4%	-3%&1%	-2%	.
COC(=O)CC1C(C)(C)C(O)C2CC3=C4C=C(OC)OC(c5ccoc5)[C@]4(C)CCC3[C@@]1(C)C2=O (stereo partly drawn)
→ .	1.9%	-12%	?	.
CCCC(C)C1(CC)C(=O)N=C(S)NC1=O (stereo not drawn)
→ .	-0.8%	-16%	-7%	.
COc1ccc(-c2nc3cnc(N4CCN(C)CC4)nc3n(CCC#N)c2=O)cc1
→ .	-9.0%	-13%	-12%	.
COc1ccc(CNc2ncncc2-c2cccnc2)c(OC)c1
→ .	3.3%	-2%	-4%	.
CNc1ccnc(-c2ccccc2C(F)(F)F)n1
→ .	1.5%	14%	-1%	.
C[C@@H](C1=C(CCN(C)C)Cc2ccccc21)c1ccccn1
→ .	2.3%	-10%	7%	.
Cc1noc(C)c1C(=O)N1CCC2(CCCN(C(=O)Nc3cccc(C#N)c3)C2)CC1
→ .	2.7%	-8%	-6%	.
O=c1cc(-c2cc(O)c(O)c(O)c2)oc2cc(O)cc(O)c12
→ .	?	33%[activator]	?	.
CC1(C)SC2C(NC(=O)Cc3ccccc3)C(=O)N2C1C(=O)O (stereo not drawn)
→ .	-0.9%	-2%	-1%	.
CCNc1ncc2nc(-c3ccc(F)cc3)c(=O)n(-c3ccc(OC)cc3)c2n1
→ .	-4.5%	-17%	1%	.
COc1ccccc1/C=C\C(=O)OC[C@@H]1CCCN2CCCC[C@H]12
→ .	-7.0%	13%	-11%	.
Cc1ccccc1-c1ccc2ncnc(NCCN3CCOCC3)c2c1
→ .	-2.7%	-28%	-3%	.
O=C1c2ccccc2CCc2ccc(Br)cc21
→ .	.	29%	.	0%
CNS(=O)(=O)c1ccc2c(c1)C(=O)c1cc(S(=O)(=O)NC)ccc1CC2
→ .	.	0%	.	3%
CC(C)(C)n1ncc2c(=O)n(Cc3cccc(Cn4cnc5c(cnn5C(C)(C)C)c4=O)c3F)cnc21
→ .	.	11µM*	.	-6%
CN(C)C(=O)c1cccc(-c2csc(N3CCC(C(N)=O)CC3)n2)c1
→ .	.	30%	.	-2%&-4%
Cc1ccc(Cl)c(Cn2cnc3c(cnn3C(C)(C)C)c2=O)c1F
→ .	.	?	.	-2%
CC(=O)N1CCN(c2ccc(NCc3cccc(C)c3)cc2)CC1
→ .	.	?	.	0%
Cn1nnnc1Sc1ncnc2scc(-c3ccccc3Br)c12
→ .	.	?	.	1%
COc1cccc(Nc2nn3c(=O)c4ccccc4nc3s2)c1
→ .	.	27%	.	0%
c1nc(NCc2ccc3c(c2)OCO3)c2cc(-c3ccc4c(c3)OCCO4)ccc2n1
→ .	.	?	.	2%&4%
CCOC(=O)CCCC(=O)Nc1ncnc2c1C(c1ccccc1)c1c(ccc3ccccc13)O2 (stereo not drawn)
→ .	.	-8%	.	4%
CC(=O)Nc1ccc(CNc2ncnc3ccc(-c4c(C)noc4C)cc23)cc1
→ .	.	-5%	.	-4%
O=S(=O)(NCCCCNS(=O)(=O)c1c(F)cccc1F)c1ccc2c(c1)OCCO2
→ .	.	58%[activator]	.	1%
O=S(=O)(NCCNS(=O)(=O)c1c(F)cccc1F)c1ccc2c(c1)OCCO2
→ .	.	59%[activator]	.	-1%
COc1ccc(-c2csc(N3CCC(C(N)=O)CC3)n2)cc1
→ .	.	19%	.	3%&8%

Second line of a record: NS1 inh	Cruzain inh Det	StopGo reporter	Cruzain inh noDet	SARS PLpro yeast
NC(=O)C1CCN(c2nc(-c3ccccc3Br)cs2)CC1
→ .	.	67%[activator]	.	-3%&1%
CC(C)(C)n1ncc2c(=O)n(Cc3cc(F)c(Cl)cc3Cl)cnc21
→ .	.	?	.	-2%
COc1ccccc1-c1nnc2n1N=C(c1ccc(OC(F)F)c(OCC3CC3)c1)CS2
→ .	.	-26%	.	0%
C=CCNc1oc(C2CCCC2)nc1C#N
→ .	.	35%[activator]	.	7%
CCOP(=O)(OCC)c1ccc2c(c1)C(=O)c1ccccc1CC2
→ .	.	11%	.	1%
N#CN1CCC(NS(=O)(=O)c2ccc(C(F)(F)F)cc2)C1 (stereo not drawn)
→ .	.	-20%	.	-5%
Cc1nc(SCc2nc3ccc(F)cc3[nH]2)c2oc3ccccc3c2n1
→ .	.	-21%	.	-7%
CN(C)c1ccc(C(=O)OCC#CCSc2nnc(-c3cccc4ccccc34)o2)cc1
→ .	.	-13%	.	-3%&-2%
CN(C)c1ccccc1-c1csc(N2CCC(C(N)=O)CC2)n1
→ .	.	62%[activator]	.	5%&1%
Cc1nc(SCc2nc3ccc(Cl)cc3[nH]2)c2oc3ccccc3c2n1
→ .	.	-16%	.	4%
Cn1c2ccsc2c2ncn(Cc3ccccc3F)c(=O)c21
→ .	.	6%	.	?
c1nc(NCc2ccc3c(c2)OCO3)c2cc(-c3ccoc3)ccc2n1
→ .	.	?	.	1%&-19%
Cn1nnnc1Sc1ncnc2scc(-c3ccc(C(F)(F)F)cc3)c12
→ .	.	11µM*	.	3%
N#Cc1nc(Nc2cccc(Cl)c2)c2ncn(C3CCCC3)c2n1
→ .	.	-57%	.	1%
COc1ccc(C2=Nn3c(nnc3-c3ccccc3OC)SC2)cc1OCC1CC1
→ .	.	?	.	12%
Cn1nnnc1Sc1ncnc2scc(-c3cccc(C(F)(F)F)c3)c12
→ .	.	22µM*	.	5%
Clc1cccc(-c2nc(-c3ccc(-c4nn[nH]n4)cc3)no2)c1
→ .	.	26%	.	0%
Cc1nc(SCCc2nc3ccccc3[nH]2)c2oc3ccccc3c2n1
→ .	.	-8%	.	-5%
C/C(=C\c1cc2ccccc2o1)C1Nc2cccc3cccc(c23)N1
→ .	.	?	.	5%
COc1ccc(C2=Nn3c(nnc3-c3ccccc3F)SC2)cc1OCC1CC1
→ .	.	?	.	-5%
C/C(=C\c1ccccc1F)C1Nc2cccc3cccc(c23)N1
→ .	.	-1%	.	-2%
CC(=O)NC(c1cc(Cl)c2cccnc2c1O)C1CC1 (stereo not drawn)
→ .	.	0%	.	?
CCOC(=O)c1ccc(-n2cccc2/C=C2\NC(=O)NC2=O)cc1
→ .	.	-23%	.	-5%
O=C(O)c1ccc2c(c1)C(=O)N([C@H](Cc1cccc3ccccc13)C(=O)O)C2=O
→ .	.	-24%	.	-8%
O=S(=O)(c1ccc2c(c1)OCCO2)N1CCN(S(=O)(=O)c2c(F)cc(F)cc2F)CC1
→ .	.	-13%	.	-5%
CC(C)C1CCC(C(=O)N[C@H](Cc2ccccc2)C(=O)O)CC1 (stereo partly drawn)
→ .	.	-12%	.	-1%
Cn1ccc2cc(-c3csc(N4CCC(C(N)=O)CC4)n3)ccc21
→ .	.	-10%	.	6%&-3%
O=C(OCC#CCSc1nnc(-c2cccc3ccccc23)o1)c1ccc(Cl)cc1
→ .	.	19%	.	-9%&-5%
Cc1csc(CNc2ncnc3ccc(-c4ccoc4)cc23)c1
→ .	.	-29%	.	6%&0%
O=C(COC(=O)CNC(=O)c1ccccc1Cl)Nc1ccccc1Cl
→ .	.	4%	.	1%

Second line of a record: NS1 inh	Cruzain inh Det	StopGo reporter	Cruzain inh noDet	SARS PLpro yeast
NC(=O)C1CCN(c2nc(-c3ccccc3F)cs2)CC1
→ .	.	47%[activator]	.	2%&0%
COc1ccc(C2=Nn3c(nnc3-c3ccccc3Cl)SC2)cc1OC1CCCC1
→ .	.	32µM*	.	-1%
COc1ccc(C(=O)OCC#CCSc2nnc(-c3cccc4ccccc34)o2)cc1
→ .	.	-1%	.	-5%&4%
Nc1nc(N)c(N=Nc2ccc(SCC(=O)O)cc2)c(=O)[nH]1
→ 7%	.	-18%	.	2%
COc1cc2c(c(OC)c1O)C(=O)CO2
→ -1%	.	-18%	.	2%
CCC(=O)c1ccc(OC)c(OC)c1O
→ -3%	.	-11%	.	-2%
Cn1cc(-c2cccc(C(F)(F)F)c2)cc(C#N)c1=O
→ 0%	.	-7%	.	-2%
Cn1c(CO)cnc1-c1ccccc1
→ 9%	.	4%	.	-1%
CCCNC(=O)c1ccccc1C(=O)NC1(C(=O)NCCC)CCCC1
→ 4%	.	-7%	.	0%
CC(=O)NC(C)Cc1cn(Cc2ccccc2)c2ccccc12 (stereo not drawn)
→ -5%	.	-6%	.	1%
NC(=O)c1nnsc1-c1ccc(-c2snnc2C(N)=O)cc1
→ 7%	.	-4%	.	-3%
CN1CCc2c(sc3nc(NN)n(-c4ccc(Cl)cc4)c(=O)c23)C1
→ 6%	.	3%	.	-2%
O=[N+]([O-])c1c(N2CCN(CCO)CC2)nc2ccccn12
→ 0%	.	-2%	.	2%
COC(=O)c1ccc(/C=N/n2c(C)nc3ccccc3c2=O)cc1
→ 0%	.	12%	.	2%
CCCN(CCC)CC(=O)N1CC(=O)Nc2ccccc21
→ 7%	.	-8%	.	-1%
C#CCn1cc(Cl)cc(C(=O)Nc2ccccc2)c1=O
→ -7%	.	15%	.	1%
CCCNC(=S)Nc1ccccc1
→ -1%	.	13%	.	1%
S=c1[nH]c2ccc(Cl)cc2s1
→ -64%	.	-4%	.	-11%
Nc1cccc(/C=C/c2ccncc2)c1
→ 2%	.	34%[activator]	.	-2%
CCCCCn1cnc2c(=S)nc(N)[nH]c21
→ 1%	.	-6%	.	1%
CCN1CCN(c2nc(Nc3cccc(OC)c3)nc(N)c2[N+](=O)[O-])CC1
→ 9%	.	-28%	.	2%
c1cc(SSc2ccncc2)ccn1
→ -32%	.	-11%	.	-12%
NC(N)=N/N=C/c1ccc(N(c2ccccc2)c2ccccc2)cc1
→ 2%	.	32µM*	.	-3%
CCOC1CCc2c(C)nc(N)nc2S1 (stereo not drawn)
→ 11%	.	-18%	.	9%
COc1cc(/C=C/c2ccc3cccc(O)c3n2)ccc1O
→ -67%	.	-23%	.	-11%
Cc1cc(C)n(/C(=C\N(C)C)C(=O)c2cccc([N+](=O)[O-])c2)n1
→ 1%	.	0%	.	0%
CN(C)/C=N/NC(=O)C1Cc2c(ccc3ccccc23)O1 (stereo not drawn)
→ 3%	.	-20%	.	-1%
CCCCOc1ccc(NC(=O)Nc2nnc(C)s2)cc1
→ 8%	.	16%	.	-1%
O=C1/C(=C\c2ccccc2)C2OCC=C3CN4CCC56c7ccccc7N1C5C2C3CC46 (stereo not drawn)
→ -3%	.	0%	.	10%
N#CCCCCN1CCCC1
→ 3%	.	-10%	.	0%

Second line of a record: NS1 inh	Cruzain inh Det	StopGo reporter	Cruzain inh noDet	SARS PLpro yeast
C=CCNC(=S)Nc1cccc([N+](=O)[O-])c1
→ 2%	.	5%	.	6%
Oc1ccc2nnc3c(Br)cnn3c2c1
→ -30%	.	-11%	.	-9%
CCOc1cccc(/C=C2\NC(=S)N(c3ccccc3)C2=O)c1O
→ -14%	.	29%	.	-3%
O=C1CCC(c2ccc3c(c2)CCC3)=NN1
→ -1%	.	29%	.	1%
O=C(O)c1cc(O)ccc1N=Nc1ccccc1
→ -8%	.	-16%	.	-1%
Cc1c(O)ccc2c(O)c(NC(=O)c3ccc4c(c3)CCC(C)(C)O4)c(=O)oc12
→ -4%	.	-13%	.	0%
